Source: PubChem (National Center for Advancing Translational Sciences (NCATS))
HPGD block: inhibitors of human 15-hydroxyprostaglandin dehydrogenase (HPGD) | Potency, µM, inactives show top-dose activity change, negative = inhibition, most hits filed as inhibitors | AID 894 | purified HPGD, NADH fluorescence kinetic, PGE2 substrate | 150,000 tested, 4.3% active; active = well fitted inhibition curve with a large enough effect (not every such curve was filed as active); inconclusive = small, poorly fitted or top-dose-only effect, or another doubt; inactive = no such curve, though single readings can be large or run the other way;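 note: top concentration of the series not given in the record; plate controls included wells without enzyme; inactives centre near -10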
Target sequence (P15428 whole entry, looked up): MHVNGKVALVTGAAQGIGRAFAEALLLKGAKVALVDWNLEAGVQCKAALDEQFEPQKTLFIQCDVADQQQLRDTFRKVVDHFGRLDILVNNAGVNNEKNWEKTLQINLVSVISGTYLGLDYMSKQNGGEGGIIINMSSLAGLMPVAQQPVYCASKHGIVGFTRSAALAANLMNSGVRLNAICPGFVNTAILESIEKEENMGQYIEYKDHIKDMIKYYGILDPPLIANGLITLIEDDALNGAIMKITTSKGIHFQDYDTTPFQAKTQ
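NADH formation kinetics: reaction with 30 uM PGE2 and 1 mM NAD+ (final), 20 nM enzyme, Tris-HCl pH 8 with Tween 20, after 15 min compound preincubation at room temperature. Fluorescence change, last versus first of five reads.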
The depositor's hits bear a star; ? = inconclusive; & = joins results of further samples. % is set by controls: 0 for no effect and ±100 for the full control effect; potency is the fitted concentration of half-maximal effect.

C[C@]12CC[C@@H](O)C[C@@H]1CC[C@@H]1[C@@H]2CC[C@]2(C)[C@@H](O)CC[C@@H]12
  HPGD block: -5%

CCC1(CC)C(=O)N(Cc2ccccc2)C(=O)N(Cc2ccccc2)C1=O
  HPGD block: -11%

Cc1ccc(NC(=O)CN2C(=O)CN=C(c3ccccc3)c3cc(Cl)ccc32)cc1
  HPGD block: -18%

CCCCc1nc2ccccc2c(=O)n1-c1ccccc1O
  HPGD block: -11%

O=C(c1sc2ccccc2c1Cl)N1CCC2(CC1)OCCO2
  HPGD block: 14µM*

COc1c(CC=C(C)C)c2c(c3oc(=O)c(-c4ccc(O)cc4)c(O)c13)C=CC(C)(C)O2
  HPGD block: -5%

CCN1C[C@]2(C)CC[C@H](O)[C@@]34[C@@H]5CC6[C@@H](OC)C[C@@](O)([C@@H]5[C@@H]6O)[C@H](C[C@@H]23)[C@H]14
  HPGD block: -6%

CC(C)OP(=O)(OC(C)C)C(O)c1cccnc1 (stereo not given)
  HPGD block: -10%

CCC(C)n1c(O)c(C=Nc2cccc(C(F)(F)F)c2)c(=O)[nH]c1=S (stereo not given)
  HPGD block: ?

CC(C)[N+](=O)[O-]
  HPGD block: -25%

CC1CCC(C(=O)NC(C(=O)N2CCC3(CC2)OCCO3)C(C)C)CC1 (stereo not given)
  HPGD block: -10%

C=Cn1ccnc1P(=S)(c1cc(N(CC)CC)ns1)c1nccn1C=C
  HPGD block: -4%

O=C(O)C1C(C(=O)O)C2(Cl)C(Cl)=C(Cl)C1(Cl)C2(Cl)Cl (stereo not given)
  HPGD block: 1%

CC(C)NC(=O)N1CCCC2(CCN(C(=O)Oc3ccccc3)CC2)C1
  HPGD block: -14%

CCCCC1(CCCC)C(=O)NC(=Nc2cccc(C)c2)NC1=O
  HPGD block: -18%

Taken from above:
COc1c(CC=C(C)C)c2c(c3oc(=O)c(-c4ccc(O)cc4)c(O)c13)C=CC(C)(C)O2 in HPGD block is entered as -5%
O=C(c1sc2ccccc2c1Cl)N1CCC2(CC1)OCCO2 in HPGD block is entered as 14µM*
Cc1ccc(NC(=O)CN2C(=O)CN=C(c3ccccc3)c3cc(Cl)ccc32)cc1 in HPGD block is entered as -18%
CCN1C[C@]2(C)CC[C@H](O)[C@@]34[C@@H]5CC6[C@@H](OC)C[C@@](O)([C@@H]5[C@@H]6O)[C@H](C[C@@H]23)[C@H]14 in HPGD block is entered as -6%

New compounds follow:
CCN(CC)CCN=Cc1c(O)n(C2CCCCCC2)c(=O)[nH]c1=O
  HPGD block: -1%

COC(=O)CCCc1[se]c2ccccc2c1I
  HPGD block: 22µM*

CN(CCCCC(=O)/C=N/O)Cc1ccccc1 (tested in a mixture with another compound)
  HPGD block: -2%

O=C(O)[C@@H]1C[C@H]1[C@@H](NP(=O)(c1ccccc1)c1ccccc1)c1ccccc1
  HPGD block: -12%&-13%

CC1COC2=C1C(=O)C(=O)c1c2ccc2c1CCCC2(C)C (stereo not given)
  HPGD block: 20µM*

CCOc1cc(C=C2C(=O)NC(=O)NC2=O)ccc1OCC(=O)N1CCOCC1
  HPGD block: -18%

Cc1nn(-c2ccccc2)c2c1C(c1ccc(F)cc1F)C(C#N)=C(N)O2 (stereo not given)
  HPGD block: 28µM*

FC(Cl)(Cl)Cl
  HPGD block: -4%

CC(=NCCN1CCCCC1)c1c(O)n(Cc2ccccc2)c(=O)[nH]c1=O
  HPGD block: -24%

O=C1NCN(c2ccccc2)C12CCNCC2
  HPGD block: -13%

CN1CCC2(CC1)CCN(C(=O)Oc1ccccc1)CC2
  HPGD block: -2%

CCC(C)C(=O)OC1C(O)C2C(CN3CC(C)CCC3[C@]2(C)O)C2C[C@]34O[C@@]5(O)C(OC(=O)C(C)(O)CC)CCC3(C)C5C(OC(C)=O)C(OC(C)=O)C4[C@@]21O (stereo not given in full)
  HPGD block: -2%

CCCCCCCCCOc1ccc2[nH]cc(CCN)c2c1
  HPGD block: -4%

CC(=O)NNc1ccccc1
  HPGD block: -2%

Cc1cc(C)cc(N2C(=O)NC(=O)/C(=C\c3cccn3-c3ccccc3)C2=O)c1
  HPGD block: 7.1µM*

In the list so far, these contain a carbonyl joined to an NH by a bond outside any ring.
Cc1ccc(NC(=O)CN2C(=O)CN=C(c3ccccc3)c3cc(Cl)ccc32)cc1
  HPGD block: -18%

CC1CCC(C(=O)NC(C(=O)N2CCC3(CC2)OCCO3)C(C)C)CC1 (stereo not given)
  HPGD block: -10%

CC(C)NC(=O)N1CCCC2(CCN(C(=O)Oc3ccccc3)CC2)C1
  HPGD block: -14%

CC(=O)NNc1ccccc1
  HPGD block: -2%

Structures shown so far that contain a COOH group (two):
O=C(O)C1C(C(=O)O)C2(Cl)C(Cl)=C(Cl)C1(Cl)C2(Cl)Cl (stereo not given)
  HPGD block: 1%

O=C(O)[C@@H]1C[C@H]1[C@@H](NP(=O)(c1ccccc1)c1ccccc1)c1ccccc1
  HPGD block: -12%&-13%

Not all compounds are listed. The share of hits here may be higher or lower than overall.
